Bioassay records from PubChem.
ClpP mod = qHTS Assay for Activators of ClpP | ATP-dependent Clp protease proteolytic subunit (Bacillus subtilis (strain 168)), P80244 | purified B. subtilis ClpP, FRET peptide cleavage, 20 min | Potency, µM (series often up to 57.5 µM), for inactives: top-dose activity change, negative = active | actives 1.9% (n = 340,000) | AID 651965, 2013; active = well fitted falling curve with a large enough effect; inconclusive = small, poorly fitted or top-dose-only effect; inactive = no such curve, though single readings can be large or run the other way; further: potency means the concentration at half of the fitted maximal effect; the source files actives as falling curves though it sought activators and does not explain the sign; nearly all actives have a fitted effect of over 65% in size; many hits overshoot -100%
Target sequence (P80244 whole entry, looked up): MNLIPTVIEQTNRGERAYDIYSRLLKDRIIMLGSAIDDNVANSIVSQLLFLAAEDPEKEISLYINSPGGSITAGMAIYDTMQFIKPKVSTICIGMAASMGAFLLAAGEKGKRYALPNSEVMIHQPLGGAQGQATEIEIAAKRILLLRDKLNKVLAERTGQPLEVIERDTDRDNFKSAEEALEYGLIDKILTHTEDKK
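FRET quenching reversal measured ClpP activation: 10 microg/mL B. subtilis ClpP at pH 8 with the FRET-FV decapeptide, read at 430 nm after 320 nm excitation. The 20-min minus 0-min signal was scaled between DMSO/no-enzyme wells and ADEP (5.8 microM final).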
gsp antag = gsp mutant antagonism; gsp-mutant cells, cAMP HTRF, 30 min; control for the full effect not named in the record; Potency, µM (doses to about 76.9 µM), for inactives: at the highest dose activity change, negative = inhibition, actives largely listed as inhibitors; actives 0.4% (n = 340,000); active = falling curve of any shape with a large fitted effect; inconclusive = falling curve, mostly with a smaller effect; inactive = flat or rising curve; cell line not stated here;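 further: intracellular cAMP measured with PDE inhibitor Ro 20-1724 present during compound exposure; potency means the concentration at half of the fitted maximal effect; on the % scale 0 is the no-effect control and ±100 the full control effect; nearly all actives have a fitted effect of over 65% in size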
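G418-selected cells were plated in DMEM/10% FBS for 16-24 h at 37C, then treated with compounds plus the PDE inhibitor […] (300 uM solution added) for 30 min at 37C. Intracellular cAMP was measured by HTRF after 30 min lysis at room temperature.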
gsp ag = agonists of gsp mutant (McCune-Albright syndrome) | gsp mutant cells, cAMP HTRF, 30 min; control for the full effect not named in the record | actives 0.13% (n = 340,000) | Potency, µM (doses to about 76.9 µM), for inactives: top-dose activation (cAMP increase), actives largely listed as activators; active = well fitted activation curve with a large enough effect; inconclusive = small, poorly fitted or top-dose-only effect, or another doubt; inactive = no such curve, though single readings can be large or run the other way; cell line not stated here;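 further: phosphodiesterase inhibitor Ro 20-1724 added with compounds to block cAMP breakdown; potency means the concentration at half of the fitted maximal effect; nearly all actives have a fitted effect of over 60% in size; about a fifth of the inactives were tested at one dose only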
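Cells in DMEM/10% FBS with G418 were pretreated with compounds in DMSO plus […] (300 uM stock) for 30 min at 37C. cAMP was measured by HTRF (cAMP-d2 plus anti-cAMP antibody-K) after 30 min at room temperature.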
TRPV1 potentiator = enhances activation of the human vanilloid receptor TRPV1 | Q8NER1 | TRPV1-expressing cells, Fluo-8 calcium influx, capsaicin EC20 potentiation; host cell line not named in the record; control for the full effect not named in the record | potentiation, % at 8.33 µM | actives 0.02% (n = 320,000); active means potentiation above 80%; inconclusive means 30% to 80%; inactive means below 30%; further: 0% is about no effect
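Fluo-8 calcium influx in TRPV1-expressing cells, kinetic read (ex 480/em 520 nm). Compound added and read 3 min for agonist activity, followed by capsaicin at EC20 final and 2 min further read for enhancement.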
D2 PAM = potentiates the human D2 dopamine receptor allosterically; P14416; DiscoveRx D2 beta-arrestin cells, luminescence, 90 min; 100% = 57 uM dopamine signal; potentiation, % (no concentration beside the values); actives 0.23% (n = 360,000); active = potentiation of 50% or more; inconclusive = 30% to 50%; inactive = 30% or less;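 further: compound concentration not given in the record; tested on top of an EC20 dose of dopamine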
Target sequence (P14416 whole entry, looked up): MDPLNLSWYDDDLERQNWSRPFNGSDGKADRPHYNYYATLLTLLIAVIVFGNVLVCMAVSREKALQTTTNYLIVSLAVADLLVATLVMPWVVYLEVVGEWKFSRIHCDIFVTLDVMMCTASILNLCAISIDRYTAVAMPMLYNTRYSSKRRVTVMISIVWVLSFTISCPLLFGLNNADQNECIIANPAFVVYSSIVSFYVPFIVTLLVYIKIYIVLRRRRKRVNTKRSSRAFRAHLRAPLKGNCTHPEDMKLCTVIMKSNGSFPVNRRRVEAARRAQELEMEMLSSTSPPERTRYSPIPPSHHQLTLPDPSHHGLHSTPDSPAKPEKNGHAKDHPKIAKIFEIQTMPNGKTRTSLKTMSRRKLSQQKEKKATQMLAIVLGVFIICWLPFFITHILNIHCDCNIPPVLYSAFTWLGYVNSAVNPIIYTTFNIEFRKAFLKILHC
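PathHunter beta-arrestin assay in DiscoveRx D2 cells. Compounds were added with an EC20 of dopamine (50 nM final) for 90 min at 37 deg C. Luminescence was read 1 h after detection reagent, with 57 uM dopamine as the EC100 control.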
Menin-MLL FL inh = displaces fluorescein MLL peptide from human menin | Fluorescence polarization, fluorescein-MLL peptide displacement from menin | AID 1766 | FP activity change, % at 61.4 µM | 290,000 tested, under 10 active; inconclusive = falling polarisation curve, or a change in total fluorescence; inactive = total fluorescence flat and polarisation flat or rising; no compound was filed as active; the % refers to the polarisation; negative = inhibition;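 further: % of control where 0% means no effect; inhibitors lower the polarisation; unlabelled MLL peptide was the positive control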
Sfp inh = Sfp phosphopantetheinyl transferase inhibition | Q9F4F7 | Biochemical Sfp PPTase activity, qHTS | Potency, µM, inactives show max response, negative = inhibition, actives largely listed as inhibitors | actives 3.5% (n = 310,000) | AID 1490; active means well fitted inhibition curve with a large enough effect; inconclusive means small, poorly fitted or top-dose-only effect, or another doubt; inactive means no such curve, though single readings can be large or run the other way;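 further: the enzyme is Sfp with the accession as filed and its product quenches rhodamine fluorescence; potency means the concentration at half of the fitted maximal effect; 0% = enzyme reaction without inhibitor and -100% = no enzyme wells; top concentration of the series not given in the record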
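Fluorescence-quenching assay with 15 nM Sfp, 5 uM rhodamine-CoA and 12.5 uM BHQ-2-labelled ybbR peptide in pH 7.6 Hepes/MgCl2 buffer. Enzyme was pre-incubated with compound for 15 min at room temperature. Rate was taken from the 30-min fluorescence change (525/598 nm).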
An asterisk follows results filed as active; ? = inconclusive; / = no result given; & = joins results of further samples; [ ] = another dose, or the depositor's remark.

item	SMILES	ClpP mod	gsp antag	gsp ag	TRPV1 potentiator	D2 PAM	Menin-MLL FL inh	Sfp inh
1	Cc1ccc(C(=O)N(C)c2ccc(OCC(=O)N3c4ccc(C)cc4C4CN(C)CCC43)cc2)cc1 (stereo not given)	/	-1%	-5%	0	-5	-3.9	21%
2	CCOC(=O)C1=C(C)N(CCCC(=O)O)C(=O)NC1c1ccc(Cl)cc1 (stereo not given)	-0.5%	2%	/	-20	-33	5.1	10%
3	Cc1cc(C)c(C)c(S(=O)(=O)N2CCC(C(=O)NNC(=O)c3ccccc3O)CC2)c1C	28µM*	-4%	9%[15.4 µM]	-1	0	/	/
4	N#CC1c2ccccc2-c2ccccc2N1C(=O)c1ccccc1 (stereo not given)	-4.5%	/	21%	/	-12	/	/
5	C[C@H](CO)N1C[C@H](C)[C@@H](CN(C)C(=O)Nc2ccccc2)Oc2ccc(NC(=O)C3CC3)cc2C1=O	-2.7%	1%	-21%	/	-8	/	/
6	COCCNC(=O)C(C)N1c2cccc3cccc(c23)S1(=O)=O (stereo not given)	?	-20%	-12%	-8	1	0.6	8%
7	c1ccc(COc2ccc3nocc3c2)cc1	-5.2%	0%	/	1	23	/	/
8	Cc1cc(C)nc(NC(=O)c2c(Cl)cccc2Cl)n1	-0.7%	8%	-1%[15.4 µM]	-3	-3	-0.6	-8%
9	Clc1ccccc1Oc1cnc2ccccc2n1	-1.2%	-8%	10%	19	6	3.5	-1%
10	C#CCn1c(=NC(=O)c2ccc(S(=O)(=O)N3CCc4ccccc4C3)cc2)sc2cc(S(N)(=O)=O)ccc21	28µM*	4%	0%	7	-13	0.1	20%
11	CCOC(=O)Cn1c(=O)oc2cc(S(=O)(=O)N3CCc4ccccc43)ccc21	2.9%	-3%	4%	25	-7	7.4	-2%
12	O=C(c1ccco1)N1CCN(CCOCCOc2cccc3ccccc23)CC1	-1.9%	-15%	-5%	7	20	2.3	11%

An excerpt of these results, in transposed form:
[3] Cc1cc(C)c(C)c(S(=O)(=O)N2CCC(C(=O)NNC(=O)c3ccccc3O)CC2)c1C
[4] N#CC1c2ccccc2-c2ccccc2N1C(=O)c1ccccc1 (stereo not given)
[5] C[C@H](CO)N1C[C@H](C)[C@@H](CN(C)C(=O)Nc2ccccc2)Oc2ccc(NC(=O)C3CC3)cc2C1=O
[6] COCCNC(=O)C(C)N1c2cccc3cccc(c23)S1(=O)=O (stereo not given)
[7] c1ccc(COc2ccc3nocc3c2)cc1
[8] Cc1cc(C)nc(NC(=O)c2c(Cl)cccc2Cl)n1
[9] Clc1ccccc1Oc1cnc2ccccc2n1
[10] C#CCn1c(=NC(=O)c2ccc(S(=O)(=O)N3CCc4ccccc4C3)cc2)sc2cc(S(N)(=O)=O)ccc21
[11] CCOC(=O)Cn1c(=O)oc2cc(S(=O)(=O)N3CCc4ccccc43)ccc21
[12] O=C(c1ccco1)N1CCN(CCOCCOc2cccc3ccccc23)CC1

Screen / compound no.	3	4	5	6	7	8	9	10	11	12
ClpP mod	28µM*	-4.5%	-2.7%	?	-5.2%	-0.7%	-1.2%	28µM*	2.9%	-1.9%
gsp antag	-4%	/	1%	-20%	0%	8%	-8%	4%	-3%	-15%
gsp ag	9%[15.4 µM]	21%	-21%	-12%	/	-1%[15.4 µM]	10%	0%	4%	-5%
TRPV1 potentiator	-1	/	/	-8	1	-3	19	7	25	7
D2 PAM	0	-12	-8	1	23	-3	6	-13	-7	20
Menin-MLL FL inh	/	/	/	0.6	/	-0.6	3.5	0.1	7.4	2.3
Sfp inh	/	/	/	8%	/	-8%	-1%	20%	-2%	11%

New compounds follow:
item	SMILES	ClpP mod	gsp antag	gsp ag	TRPV1 potentiator	D2 PAM	Menin-MLL FL inh	Sfp inh
13	CCN(CC)S(=O)(=O)c1ccc(OC)c(NC(=O)CC2CCCC2)c1	/	/	14%[15.4 µM]	-30	-5	-7.5	0%
14	CC(C)CCN(C(=S)NC(=O)C1CCCCC1)c1c(N)n(Cc2ccccc2)c(=O)[nH]c1=O	0.6%	-5%	5%[15.4 µM]	5	-7	0.7	-2%
15	Cc1cc(C)c(S(=O)(=O)c2ccccc2)c(OC(=O)c2ccc(Cl)cc2Cl)n1	-5.7%	-17%	0%	-5	-8	-7.0	6%
16	Cc1cccc(N2CCN(C(=O)CCCn3c(=O)c4cccn4c4cccnc43)CC2)c1C	-11%	?	?	?	19	2.8	-1%
17	CNC(=O)NC(=O)COC(=O)c1ccccc1OCc1ccccc1	0.5%	-22%	-6%[15.4 µM]	-7	-2	-2.8	18%
18	COc1ccccc1C(=O)NCC(=O)Nc1ccc2c(c1)OCO2	-3.4%	10%	5%[15.4 µM]	0	-2	/	/
19	Cc1ccccc1CN1CCN(CC2CC2)CC1CCO (stereo not given)	0.1%	4%	1%	15	-47	0.5	8%
20	Cc1cccc(NC(=O)c2ccc3c(c2)C(=O)N(Cc2cccnc2)C3=O)c1C	-6.3%	-5%	-8%	-23	14	/	1%
21	O=C(Nc1cccnc1)c1cc(-c2cccc(Cl)c2)on1	-0.8%&-0.5%	-14%	11%[15.4 µM]	0	-9	2.0	4%
22	COc1ccc(-c2nc(CS(=O)CC(=O)N3CCOCC3)c(C)o2)cc1OC (stereo not given)	4.0%	6%	0%	-10	-8	/	-6%
23	COc1ccc(NC(=O)C(=O)N/N=C(\C)CC(=O)Nc2cc(C)ccn2)c(OC)c1	1.0%	-15%	-3%[15.4 µM]	2	1	-0.2	16%
24	Cc1onc(-c2c(Cl)cccc2Cl)c1NC(=O)NN(C)c1ccc([N+](=O)[O-])cn1	1.4%	6%	7%[15.4 µM]	-16	-8	-5.6	-3%
25	COc1ccc(C(=O)NCC(=O)N/N=C/C(C)=C/c2ccccc2)cc1OC	?	-7%	-70%[inhibitor]	?	-3	-2.4	2%
26	Cc1ccc(S(=O)(=O)N2CCC(=O)N([C@H](COCc3ccccc3)Cc3ccccc3)CC2)cc1	?	/	/	/	/	-1.8	-15%
27	Cc1cc(N2CCCCC2)nc(N2CCOCC2)n1	-2.7%	16%	5%	18	-15	2.9	-1%
28	C/C(=N\O)c1oc2ccc3c(C)cc(=O)oc3c2c1C	/	11%	21%[15.4 µM]	-3	-3	1.2	-1%
29	Cc1onc(-c2ccccc2Cl)c1C(=O)Nc1c(C)n(C)n(-c2ccccc2)c1=O	-0.1%	0%	7%	10	-4	4.4	17%
30	CCn1c(SCC(=O)Nc2ccc(S(=O)(=O)Nc3ccccn3)cc2)nnc1-c1ccncc1	?	5%	-1%	3	13	1.5	7%
31	O=C1NC(NS(=O)(=O)c2ccc(Cl)cc2)(C(F)(F)F)C(=O)N1Cc1cccnc1 (stereo not given)	-0.7%	14%	-15%	13	-15	8.2	-21%
32	CCCn1c(CCC(=O)O)nc2cc(S(N)(=O)=O)ccc21	-0.6%	9%	6%	4	-11	-1.6	-28%
33	Cc1ccc(Cn2ncc3c(N4CCOCC4)ncnc32)cc1	0.8%	-3%	-25%	2	-16	-1.9	8%
34	CC(C)C(=O)Nc1cc2c(cc1C(=O)c1ccccc1)OCCO2	0.8%	8%[15.4 µM]	2%	/	-27	3.7	-4%
35	CC(=O)Cc1nsc(NC(=O)c2ccc(Cl)cc2Cl)n1	/	-20%	-11%[15.4 µM]	-2	-2	-1.9	25%
36	COc1ccccc1CNC(=O)CS(=O)(=O)c1ccc(C)cc1	-0.5%	10%	-1%	7	-2	/	1%
37	Cn1cccc1/C=N/NC(=O)Cc1cccs1	/	9%	10%[15.4 µM]	-6	-1	1.1	-2%
38	Nc1nncn1C(=O)c1cc(Br)ccc1Cl	1.1%	3%	-30%	0	-9	-1.0	-3%
39	Cc1cc(C)n(CC(=O)O)n1	1.2%	-1%	-51%[inhibitor]	13	5	-0.4	-3%
40	Cc1sc(/C=C2\C(=O)ON=C2c2ccccc2)cc1Br	/	/	/	2	/	6.8	11%
41	COc1ccc(C2=CCCC2)c(OC)c1	-2.8%	-1%	-8%	/	-11	/	/
42	COC1Cc2ccccc2N(C(=O)N2CCN(CCO)CC2)c2ccccc21 (stereo not given)	0.7%	4%	0%	19	-8	-2.6	9%
43	O=C(CN1C(=O)C2C3C=CC(C3)C2C1=O)Nc1nc(SCc2ccc(Cl)cc2)n[nH]1 (stereo not given)	-2.8%	-4%	19%	-1	-3	0.5	26%
44	CC1(C)CC(NC(=O)c2cc(COc3cccc(C(F)(F)F)c3)on2)CCO1 (stereo not given)	0.7%	-15%	20%	0	-12	-4.5	4%
45	COC(=O)CSc1nc2nc(C)c(Br)cc2[nH]1	-3.0%	10%	16%	16	2	3.0	-16%
46	O=C(c1ccccc1)N(c1ccccc1)c1ccccc1O	1.2%	-5%	-7%	/	-10	/	/
47	O=C(Nc1ccccc1C(=O)N1CCOCC1)c1cccc(S(=O)(=O)N2CCCC2)c1	-10%	9%	-15%	4	-8	5.0	4%
48	CC(=O)N1C(=O)CC(C)N(C(C)=O)c2ccc([N+](=O)[O-])cc21 (stereo not given)	2.1%	18%	13%	-5	-12	3.0	-4%
49	CN(C)c1ccc(/C=C/c2nc3ccccc3c(=O)n2CCO)cc1	-2.0%	-17%	?	19	7	?	7%
